PINK1 expr mod: changes PINK1 expression; PINK1 immunofluorescence, high-content cytometry, 24 h; Potency, µM (highest dose often 76.6 µM), for the others: at the top dose activation (PINK1 increase), most hits filed as activators; 410,000 compounds, 0.2% hits; AID 624263; active = well fitted activation curve with a large enough effect; inconclusive = small, poorly fitted or top-dose-only effect; inactive = flat fitted curve, though single readings scatter; cell line not stated here;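 also: potency is read from the fitted curve at half-maximal effect; % of control where 0% means no effect; nearly all actives have a fitted effect of over 65% in size; a mitochondrial uncoupler was the plate control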
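Stable cell line treated 24 h with compounds at 5 concentrations (CCCP controls), then fixed and immunostained for PINK1 plus nuclear and cell stains; PINK1 immunofluorescence quantified by laser-scanning microplate cytometry.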
TRPML1 agonist: activates the human TRPML1 channel. Q9GZU1. TRPML1-expressing cells, Ca2+ dye fluorescence, FDSS; host cell line not named in the record; reference of the full effect not given here. activation, % (no concentration beside the values). 410,000 compounds, 0.12% hits. AID 624414; in the data active = activation above about 50%; inconclusive = about 30% to 50%; inactive = below about 30%; also: 0% is about no effect; the text of the record puts the active cut at 80%
Target sequence (Q9GZU1 whole entry, looked up): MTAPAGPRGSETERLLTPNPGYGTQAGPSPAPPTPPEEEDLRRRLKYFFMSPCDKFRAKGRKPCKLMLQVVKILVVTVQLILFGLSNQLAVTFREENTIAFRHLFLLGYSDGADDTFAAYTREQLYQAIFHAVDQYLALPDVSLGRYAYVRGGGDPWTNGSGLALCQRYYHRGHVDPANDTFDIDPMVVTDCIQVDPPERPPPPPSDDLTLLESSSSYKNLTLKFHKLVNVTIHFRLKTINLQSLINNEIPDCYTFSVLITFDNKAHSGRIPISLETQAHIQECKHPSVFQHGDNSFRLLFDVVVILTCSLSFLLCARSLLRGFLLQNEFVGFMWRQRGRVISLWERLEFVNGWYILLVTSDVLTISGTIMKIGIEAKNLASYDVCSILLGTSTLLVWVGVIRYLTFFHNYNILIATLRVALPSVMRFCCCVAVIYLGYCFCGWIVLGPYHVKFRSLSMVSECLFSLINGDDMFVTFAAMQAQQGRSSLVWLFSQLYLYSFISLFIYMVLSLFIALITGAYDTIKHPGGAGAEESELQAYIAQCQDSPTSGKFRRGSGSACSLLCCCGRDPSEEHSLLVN
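In this qHTS format, compounds were pin-transferred onto Ca8-dye-loaded TRPML1-DL cells induced with Tet overnight, and intracellular Ca2+ fluorescence was recorded kinetically for 110 s after a 10 s baseline. A subsequent 4uM final 54-4 (EC80) addition followed by a second 110 s read served as the antagonist phase.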
TRPML1 blocker: human mucolipin-1 channel inhibition. Q9GZU1. TRPML1-inducible cells, Ca2+ dye fluorescence, FDSS; stronger effect = lower value; inhibition of EC80 agonist-evoked calcium signal. activity change, negative = inhibition, % (no concentration beside the values). 390,000 compounds, 0.02% hits. AID 624415; in the data active means activity change below about -50%; inconclusive means about -30% to -50%; inactive means above about -30%;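 also: stimulus is agonist 54-4 at its EC80 concentration; % is scaled to controls: 0 for no effect and ±100 for the full control effect; compound concentration not given in the record; the text of the record puts the active cut at -80%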
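TRPML1-DL cells, Tet-induced overnight (~16 h, 37 °C) at 1,500 cells/well, were loaded with Ca8 no-wash dye plus quencher for 45-90 min at room temperature. Compounds were pinned during FDSS kinetic reading; agonist 54-4 at EC80 (4 uM final) then added.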
Six1-Eya2 inh: inhibitors of human Six1/Eya2 interaction; AlphaScreen GST-Six1/His-Eya2 binding, biochemical; stronger effect = lower value; control for the full effect not named in the record; 360,000 compounds, 0.56% hits; activity change, % (concentration not given with the values); AID 651725; Q15475+O00167; in the data active = activity change below about -65%; inconclusive = about -30% to -65%; inactive = above about -30%; also: % is scaled to controls: 0 for no effect and ±100 for the full control effect
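GST-Six1 + His-Eya2 (5X stock: 250/500 nM); Tris pH 8.0, 300 mM NaCl, 0.05% BSA, 0.02% Tween 20; GSH donor/Ni acceptor beads; 1 h 37 °C dark; AlphaScreen readout.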
CtBP-E1A inh: CtBP/E1A binding inhibition; 340,000 compounds, 0.49% hits; activity change, % (test concentration not listed); AlphaScreen GST-E1A/His-CtBP binding, 1536-well; stronger effect = lower value; control for the full effect not named in the record; in the data active means activity change below about -65%; inconclusive means about -30% to -65%; inactive means above about -30%; also: % is scaled to controls: 0 for no effect and ±100 for the full control effect
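In 5 uL wells, 23 nL compound meets equimolar GST-E1A and His-CtBP (5X stock 125 nM each) for 2 h, 37 °C. Beads (5X, 50 ug/mL) then 1 h, 37 °C, dark.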
D2 ag: human D2 receptor agonism in beta-arrestin assay. P14416. activation, % (test concentration not listed). DiscoveRx PathHunter D2 beta-arrestin, luminescence, 90 min; 100% = 57 uM dopamine signal. 360,000 compounds, 0.084% hits; in the data active = activation above about 40%; inconclusive = about 15% to 40%; inactive = below about 15%; also: compound concentration not given in the record; the text of the record calls up to 30% inactive
Target sequence (P14416 whole entry, looked up): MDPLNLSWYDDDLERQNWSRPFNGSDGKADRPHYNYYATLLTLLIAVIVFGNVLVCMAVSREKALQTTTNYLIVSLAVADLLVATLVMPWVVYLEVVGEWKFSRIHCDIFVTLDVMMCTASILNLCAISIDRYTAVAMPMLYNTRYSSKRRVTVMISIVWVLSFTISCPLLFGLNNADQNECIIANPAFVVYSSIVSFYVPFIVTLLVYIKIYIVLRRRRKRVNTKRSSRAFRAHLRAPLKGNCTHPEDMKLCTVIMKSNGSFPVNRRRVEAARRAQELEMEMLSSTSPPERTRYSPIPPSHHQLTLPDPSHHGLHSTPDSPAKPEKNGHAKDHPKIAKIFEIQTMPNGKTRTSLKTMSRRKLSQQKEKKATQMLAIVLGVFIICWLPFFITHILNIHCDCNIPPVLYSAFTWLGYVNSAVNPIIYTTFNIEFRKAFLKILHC
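Agonist mode: compounds alone added to overnight-plated D2 PathHunter cells for 90 min at 37 C, with 57 uM final dopamine (EC100) defining full response. Beta-arrestin recruitment detected by chemiluminescent reagent, read after 1 h at ambient temperature.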
Active calls of the source: *; ? = inconclusive; · = not tested or not shown; [ ] = another dose, or the depositor's remark. Rows were taken by chance; about 1% have a hit in one of these screens.

Order of results – PINK1 expr mod	TRPML1 agonist	TRPML1 blocker	Six1-Eya2 inh	CtBP-E1A inh	D2 ag
- COc1ccc(CNC(=O)C(NC(C)=O)C(=O)Nc2ccc(OC)cc2)cc1 (stereo not drawn)
→ -0.8%	2.0	-7.2	7.0	1.3	-3.2
- O=c1c(-c2ccccc2)c(O)cc(-c2ccncc2)n1-c1ccc(Cl)cc1
→ -1.0%	0.5	-12.2	3.6	0.6	-4.6
- CC(Oc1cccc(Cl)c1)c1ccnc2nc(/N=C/N(C)C)nn12 (stereo not drawn)
→ -0.9%	1.2	4.2	-5.1	0.6	0.9
- CCCNC(=O)C(=O)Nc1cc2c3c(c1)CCC(=O)N3CCC2
→ 0.2%	1.0	-4.3	-3.3	·	-3.1
- CCc1ccc(CN(C)C(=O)CCc2nnc(CCc3ccccc3OC)o2)nc1
→ 1.7%	0.6	1.1	0.9	15.0	-0.5
- Cc1ccc(-c2nc(C#N)c(NCCN3CCCCC3)o2)cc1
→ -3.8%	0.1	-17.7	-7.8	-16.6	-1.2
- O=C(C1COc2ccccc2O1)N1CCN(Cc2ccc(Br)cc2F)CC1 (stereo not drawn)
→ 0.5%	-0.2	-1.3	-3.2	-10.0	-0.2
- COc1ccc(NC(=O)c2ccc(CN3C(=O)CCn4nc(C)cc43)cc2)c(OC)c1
→ -0.3%	1.8	-4.0	·	·	·
- O=C(O)C1C(c2ccccc2)C(C(=O)OCCCO)C1c1ccccc1 (stereo not drawn)
→ 0.4%[38.3 µM]	-0.6	-2.1	2.0	5.8	-0.6
- CCn1cc(Br)c(C(=O)N(C)Cc2ccccc2)n1
→ 3.6%[38.3 µM]	0.6	28.3	1.8	6.8	0.1
- Nc1cc(C(=O)OCC(=O)NNC(=O)c2ccccc2F)ccc1Cl
→ -2.5%	0.4	-4.2	-3.5	-2.2	-3.5
- CN(C)CCCN(C(=O)c1ccc(S(=O)(=O)N2CCc3ccccc32)cc1)c1nc2ccc(F)cc2s1
→ -1.1%	0.7	-20.4	-21.1	-29.7	-5.3
- CCOC(=O)CCCCCNC(=O)c1ccc(F)cc1F
→ 0.4%	-0.5	2.1	46.9	7.0	-0.3
- Oc1ccccc1/C=N/NC(=S)NC1CC2CC1C1C=CCC21 (stereo not drawn)
→ ?	0.1	2.9	?	?	9.5
- Cc1ccc(C2CC(c3ccco3)=NN2S(C)(=O)=O)cc1 (stereo not drawn)
→ 0.0%	0.0	21.9	2.8	9.6	-2.5
- COc1ccc(Cl)cc1NC(=O)c1cccnc1
→ -1.3%[38.3 µM]	2.3	-17.0	1.2	1.0	-2.2
- O=C(CN(C1CCCCC1)S(=O)(=O)c1ccc(F)cc1)NC1CC1
→ ·	-0.5	-3.7	1.1	2.5	-1.3
- N#Cc1c(NC(=O)c2cnn3cccnc23)sc2c1CCCC2
→ -0.4%	0.4	15.6	2.0	-3.3	-0.8
- O=C(OCC(=O)N1CCCCCC1)c1ccc(Cl)nc1
→ -0.4%	0.5	7.3	-0.2	-1.5	-2.4
- CNC(=O)c1cn(-c2ccccc2)c(=O)c2ccccc12
→ 5.6%[38.3 µM]	-0.3	46.2	1.0	2.5	-4.6
- O=C(NCc1ccc(F)cc1)C1CCCN1C(=O)Nc1ccc(Cl)cc1 (stereo not drawn)
→ 0.5%	1.2	-9.3	0.0	·	6.4
- Cc1cc(NC(=O)CCC(=O)N(c2ccc(F)cc2)C(C(=O)NC2CCCC2)c2ccccc2)no1 (stereo not drawn)
→ 5.9%	-0.2	-14.6	9.7	5.7	-2.0
- CCOC(=O)C1(C)NC(c2ccco2)C2C(=O)N(CC)C(=O)C21 (stereo not drawn)
→ 1.3%	3.6	24.1	7.0	·	1.3
- CC(C)N(Cc1ccccc1)S(=O)(=O)N(C)C
→ 0.9%	-1.1	0.2	0.2	8.8	-4.2
- CSc1ncnc2c1ncn2CCCNCc1ccccn1
→ 0.3%	0.3	16.3	-25.3	?	-7.1
- O=C(Nc1cccnc1)c1ccc(S(=O)(=O)c2ccccc2)cc1
→ -0.5%	2.2	-19.9	1.0	-5.5	-1.4
- Cc1cc(C)cc(NC(=O)C2CCN(S(=O)(=O)c3c(C)noc3/C=C/c3ccco3)CC2)c1
→ 3.7%	0.7	11.2	·	·	·
- O=[N+]([O-])c1cccc(/C([O-])=C(/C(=S)Nc2cccc3ccccc23)[n+]2ccccc2)c1
→ -0.5%	-0.3	16.7	-7.5	-10.2	-5.9
- O=[N+]([O-])c1cccc(C=NNc2ccccc2)c1
→ 1.8%	1.0	9.6	-20.7	-6.1	-5.8
- CN1CCN(CCOc2cccc(Cl)c2)CC1
→ -3.2%	0.0	-11.9	-1.4	7.2	0.3
- COc1ccc(C(=O)NCc2ccc3c(c2)OCO3)c(OC)c1
→ 0.0%	0.9	66.4	-8.5	-4.2	-0.3
- CCOc1ccc(N(CC)S(=O)(=O)N2CCCC(C(=O)Nc3ccc(OC)c(OC)c3)C2)cc1 (stereo not drawn)
→ -1.6%	0.8	-17.2	·	·	·
- CNC(=O)c1cc(S(=O)(=O)N2CC(C)OC(C)C2)ccc1N1CCOCC1 (stereo not drawn)
→ 0.5%	-0.2	5.5	-1.5	1.0	-0.4
- COc1ccc(NS(=O)(=O)c2cccc(C(=O)NCC3(N4CCOCC4)CCCCC3)c2)cc1
→ -0.3%	1.0	1.3	-1.7	4.5	0.6
- CC(C)CCNC(=O)CN(Cc1ccc(F)cc1)C(=O)CCC(=O)Nc1ccccn1
→ -0.6%	-1.1	3.2	-21.1	-1.2	-6.9
- CC(=O)c1cccc(NC(=O)C2Cc3c(-c4ccccc4)ccnc3O2)c1 (stereo not drawn)
→ 0.8%	1.8	-3.2	-9.7	0.0	1.4
- O=C(O)CCCNc1cc(N2CCN(C3CCCCC3)CC2)c2noc3c2c1C(=O)c1ccccc1-3
→ 1.0%	-0.1	-18.2	·	·	·
- O=C(COC(=O)c1ccc(Br)o1)Nc1ncc([N+](=O)[O-])s1
→ 5.3%	0.3	-11.5	-27.5	3.6	-2.9
- CC(C)=CC(=O)OCC(=O)Nc1ccc(Cl)cn1
→ -0.1%	-0.6	8.9	5.2	6.3	1.9
- O=C(NCCCN1CCOCC1)c1c(O)c2ccccc2[nH]c1=O
→ 1.6%	0.8	-16.1	6.4	0.9	-3.3
- O=C(CN1C(=O)c2ccccc2C1=O)NCC(=O)OCC(=O)c1cccc([N+](=O)[O-])c1
→ 6.0%	-0.7	10.1	6.6	1.7	-12.2
- CCOC(=O)C1CCCN(Cc2c(C(=O)N3CCCCC3)nc3c(C)cccn23)C1 (stereo not drawn)
→ -1.1%	-0.3	-2.5	-3.7	4.9	-1.2
- N#C/C(=C\c1ccc2c(c1)OCO2)C(=O)NCc1ccco1
→ 1.3%	0.5	16.7	6.3	·	2.0
- Cc1c(NC(=O)CN2C(=O)NC(C)(c3ccc4c(c3)OCCO4)C2=O)c(=O)n(-c2ccccc2)n1C (stereo not drawn)
→ 0.4%	1.3	11.3	0.3	-11.0	2.0
- COc1ccccc1NC(=O)C1=C(C)Nc2nc(SCc3ccccc3Cl)nn2C1c1ccncc1 (stereo not drawn)
→ 0.9%	0.8	-8.5	·	·	·
- CC(=O)OC1(C(F)(F)F)Oc2ccccc2NC1=O (stereo not drawn)
→ 0.9%	-0.8	4.4	1.9	-9.8	-0.4
- O=C(CSc1nnnn1-c1ccc(Cl)cc1)NNC(=O)c1ccc([N+](=O)[O-])cc1
→ -0.9%	-0.1	16.5	-2.5	2.5	-5.0
- O=C(NC(=S)NCc1cccnc1)c1ccccc1
→ -1.5%	1.9	-0.3	3.0	4.0	3.0
- NC(=O)CC(NC(=O)Cc1ccc(Br)cc1)c1ccc(NCCc2ccccc2F)c([N+](=O)[O-])c1 (stereo not drawn)
→ 0.5%	0.5	6.7	-12.7	-1.7	-3.9
- COc1ccc(NS(=O)(=O)c2ccc(NC(=O)c3ccc(N(C)S(C)(=O)=O)cc3)cc2)cc1
→ 10.5%	0.3	6.6	-5.3	-1.6	6.3
- Cn1cc(CCC(=O)N2CCCC(C(=O)c3ccc(C(C)(C)C)cc3)C2)cn1 (stereo not drawn)
→ 0.7%	-0.8	8.6	-0.8	6.5	-2.8
- CC(=O)Nc1ccc(S(=O)(=O)NCC(=O)OC(C)c2ccccc2Cl)cc1 (stereo not drawn)
→ 3.0%	1.8	-3.1	-1.6	3.7	-4.0
- O=c1[nH][nH]c(=O)c2c(NS(=O)(=O)c3ccccc3)cccc12
→ -0.2%	1.4	-8.0	-3.6	1.2	-20.9
- COc1cccc(-c2nc(CS(=O)(=O)CC(=O)NC3CCC(C)CC3)c(C)o2)c1 (stereo not drawn)
→ -1.4%	-0.5	13.2	-2.9	-1.7	-2.7
- CCc1nnc(NC(=O)CSc2nccn2Cc2ccccc2)s1
→ -4.5%	0.2	-9.4	·	·	·
- COc1ccc(-c2nnc(SCc3ccccn3)n2C)cc1
→ 0.0%	-0.9	-0.8	22.7	0.0	-4.8
- COc1cc(OC)c(NC(=O)CCn2cccn2)cc1Cl
→ 0.4%	2.6	21.8	·	·	·
- Cc1cn2c(=O)cc(COc3cc(C)c(Cl)c(C)c3)nc2s1
→ 0.8%	1.1	-7.1	·	·	·
- Cc1cc(C(=O)N2CCCC(Nc3ccccc3)C2)c2ccc(F)cc2n1 (stereo not drawn)
→ 0.6%	0.5	6.9	1.5	·	-0.7
- CSC(=S)N/N=C/c1c[nH]c2ccccc12
→ -1.3%	-0.7	11.8	-11.0	-12.6	0.0

Later entries
Order of results – PINK1 expr mod	TRPML1 agonist	TRPML1 blocker	Six1-Eya2 inh	CtBP-E1A inh	D2 ag
- CNC(=S)Nc1ccc(C)cc1
→ 13.9%	0.9	33.0	-1.9	-3.4	-6.3
- COc1ccc(NC(=O)N2CCCC2C(=O)Nc2ccccc2)cc1 (stereo not drawn)
→ -0.1%	-1.1	3.6	-3.5	5.4	0.2
- C#CCOC(=O)/C(=C/c1ccc(F)cc1)NC(C)=O
→ -0.8%	-1.0	-2.9	1.4	4.3	-6.4
- COc1ccc(NC(=O)C2CCCN2C(=O)NCc2ccccc2)c(OC)c1 (stereo not drawn)
→ -2.5%	1.4	6.3	5.3	-1.4	-1.3
- CCN1CCN(c2ccc(S(=O)(=O)N3CCOCC3)cc2NC(=O)c2ccc(OCC(C)C)cc2)CC1
→ -0.5%	-0.1	21.6	1.0	·	1.1
- C=CCn1cc(/C=N/NC(=O)COc2cccc3cccnc23)c2ccccc21
→ -1.7%	-0.2	3.8	15.7	17.5	-2.2
- Cc1c(N(C)S(=O)(=O)c2ccc(Cl)c(C(=O)NCC(C)(C)N3CCOCC3)c2)c(=O)n(-c2ccccc2)n1C
→ 1.8%	-0.3	5.6	0.8	6.9	-2.3
- CCOc1ccccc1-n1c(N)c(C(=O)OC)c2nc3ccccc3nc21
→ -4.3%	1.9	7.7	·	·	·
- O=c1nc2c(-c3ccccc3F)n[nH]n2c2ccccc12
→ -0.6%	-1.5	1.2	-3.0	-4.9	-2.5
- Cn1c(OCc2ccc3c(c2)OCO3)nc2c1c(=O)n(Cc1cccc(Cl)c1)c(=O)n2C
→ -0.7%	0.6	-12.6	-9.9	2.7	-1.5

Compound activity from PubChem BioAssay.
